# Screening results deposited in PubChem BioAssay by several laboratories.
# Mtb betalactam – beta-lactam sensitization of Mtb H37Rv; M. tuberculosis H37Rv growth with meropenem, percent inhibition; hits of this screen are not shown here; inhibition, % at 25 µM; 330,000 tested, 0.27% active; AID 434955;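 active = about 74% or more and at least 40 points above the plate without the antibiotic, then above 30% in a dose series; inconclusive = first-round hits that could not be retested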;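 also: growth measured after seven days incubation then overnight dye step; 0% = bacteria only wells and 100% = bacteria with antibiotic; twin plates without the antibiotic show which effects depend on it; some results filed as inactive read as strong as hits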
# Mtb H37Rv – M. tuberculosis H37Rv growth inhibitors, H37Rv strain (AID 1626); M. tuberculosis H37Rv growth inhibition; higher % means a stronger effect; inhibition, % at 10 µM, or IC50 in µM where a hit was titrated; 220,000 tested, 0.95% active;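 active = confirmed in a dose series; inconclusive = inhibition above 80% but not taken into the dose series; inactive = below 80% or under 30% at every dose of the series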;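 also: bacteria incubated seven days before Alamar blue readout; 0% = bacteria only wells and 100% = bacteria with antibiotic wells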
# YopH inh – inhibitors of Yersinia enterocolitica YopH tyrosine phosphatase; fluorescence Ex485/Em525; inhibition, %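 (about 10 µM by stock and volumes)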; 140,000 tested, 0.16% active; AID 898;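 active = inhibition of 50% or more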;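 also: controls were vehicle for no effect and minimum signal wells for full effect; inactives centre near -20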
# Arbovirus inh – arbovirus infection inhibition. arbovirus infection cell-based antiviral screen. inhibition, % at 10 µM. 200,000 tested, 0.37% active. AID 1251;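 active = inhibition from about 30%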;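 also: bluetongue infection of BSR cells; cell survival read as ATP light after 72 h; 0% = infected wells without compound and 100% = uninfected wells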
# RecA intein inh – inhibitors of M. tuberculosis RecA intein splicing | P9WHJ3 | cell-free RecA intein splicing, fluorescence | inhibition, %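 (about 9 µM by stock and volumes)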 | 290,000 tested, 0.75% active | AID 2221; in the data active = inhibition above about 30%; inconclusive = no clear call, values can overlap the other calls;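 also: 0% = vehicle wells and 100% = reference inhibitor control wells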
# Target sequence (P9WHJ3 whole entry, looked up): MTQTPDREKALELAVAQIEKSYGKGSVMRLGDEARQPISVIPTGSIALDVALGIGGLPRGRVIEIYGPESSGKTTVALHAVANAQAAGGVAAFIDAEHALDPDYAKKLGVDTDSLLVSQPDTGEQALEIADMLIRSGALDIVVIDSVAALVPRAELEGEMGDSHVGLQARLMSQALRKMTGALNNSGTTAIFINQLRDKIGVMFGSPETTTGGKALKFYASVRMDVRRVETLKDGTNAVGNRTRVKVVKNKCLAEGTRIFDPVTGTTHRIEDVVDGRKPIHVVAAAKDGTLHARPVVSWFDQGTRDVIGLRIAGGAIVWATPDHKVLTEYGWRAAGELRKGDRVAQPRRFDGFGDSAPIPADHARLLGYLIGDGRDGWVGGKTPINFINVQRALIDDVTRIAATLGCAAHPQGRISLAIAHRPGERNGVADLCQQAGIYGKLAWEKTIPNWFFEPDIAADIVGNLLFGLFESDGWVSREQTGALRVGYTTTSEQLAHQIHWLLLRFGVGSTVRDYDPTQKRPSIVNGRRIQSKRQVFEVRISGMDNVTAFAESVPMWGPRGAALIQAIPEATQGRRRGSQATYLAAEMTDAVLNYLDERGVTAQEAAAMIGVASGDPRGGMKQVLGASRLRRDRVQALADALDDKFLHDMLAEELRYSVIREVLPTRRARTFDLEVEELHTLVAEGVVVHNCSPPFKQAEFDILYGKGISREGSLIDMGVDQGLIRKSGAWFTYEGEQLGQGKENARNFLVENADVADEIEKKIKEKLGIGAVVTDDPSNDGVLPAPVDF
# Arbovirus inh repeat – recorded beside Arbovirus inh, whose call it bears; inhibition, %; measured here: 10K subset replicate screen; many hits read low in the repeat;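 first of two repeat runs on a subset; 0% = infected and 100% = uninfected wells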
# The depositor's hits bear a star; ? = inconclusive; . = no result given.
SMILES,Mtb betalactam,Mtb H37Rv,YopH inh,Arbovirus inh,RecA intein inh,others
C=CCn1c(SCC(=O)N2CCOCC2)nc(O)cc1=O,-5,-9%,-33,5,0.9,
CC(C)N1C(=O)CC2(CC[N+](C)(CCOC(=O)C(O)(c3ccccc3)c3ccccc3)CC2)C1=O (centres undefined),-6,6%,-3,0,1.6,
Nn1c(Cc2ccccc2F)nnc1SCC(=O)N1CC(=O)Nc2ccccc21,-1,-2%,9,7,-1.0,Arbovirus inh repeat=0
COc1ccc(/C=C2\SC(=S)N(CCC(=O)NC3C=CS(=O)(=O)C3)C2=O)cc1 (centres undefined),-4,.,.,.,2.7,
CC(=O)Nc1ccc(C(=O)CSc2nnnn2C)cc1,-4,-4%,.,.,0.5,
CCCn1c(SCc2ccccc2)nc2c1c(=O)[nH]c(=O)n2C,20,0%,-50,-1,1.7,
Cc1cccc(C)c1NC(=O)CCCSc1nnc(-c2ccc(F)cc2)n1-c1ccccc1,13,5%,-3,-7,1.5,
COC(=O)c1c(C(=O)OC)c2cccc3cc(-c4ccccc4)c4ccc1c4n32,-6,-2%,-2,-4,18,
Cc1c(C#N)c(=O)oc2ccc3ccccc3c12,-4,2%,-24,9,-268,
CCOC(=O)C1=C(O)CSC1=Nc1ccccc1,-15,-20%,-33,1,3.3,
Cc1cc(C)cc(NC(=O)COC(=O)[C@@H](NC(=O)c2ccco2)C(C)C)c1,-10,5%,.,8,-0.7,
O=C(NCc1ccc(Cl)cc1)C(=O)NCC(c1cccnc1)N1CCN(c2ccc(F)cc2)CC1 (centres undefined),17,35%,.,7,2.7,
Cc1c(C(=O)N2CCN(c3ncccn3)CC2)oc2c(Cl)cccc12,-5,.,.,.,0.2,
CCOc1ccccc1CNC(=O)c1cc2oc3ccccc3c2n1C,?,-3%,-19,12,18,
CCCC(=O)N(CCN1CCOCC1)c1nc2c(F)cc(F)cc2s1,-4,.,.,.,0.0,
CCOCCCNC(=O)c1cc(Sc2ccc(F)cc2)nc2ccccc12,-2,7%,-10,-14,0.1,
Cc1ccc(C(=O)NC(C)c2ccc(-n3ccnc3)cc2)c(C)c1 (centres undefined),-4,.,.,.,1.0,
NC1=NC2(CCN(Cc3ccccc3)CC2)n2c(nc3ccccc32)N1,1,-7%,3,-1,-1.3,
CN(CCc1ccccn1)C(=O)CCc1nnc(CCCc2ccccc2)o1,6,0%,.,3,-2.7,
Brc1ccc(-c2csc(N3CCC(c4ccccc4)C3)n2)cc1 (centres undefined),-2,-5%,-34,-5,-1.0,
COc1c2ccoc2cc2oc(C)cc(=O)c12,-5,-4%,.,.,-1.3,
Cc1nc(-c2ccccn2)nc(N2CCOCC2)c1Cl,86,?,.,.,-0.6,
COC(=O)c1c(NC(=O)CCCC(=O)O)sc2c1CCCCC2,-6,0%,.,5,-1.1,
CCc1ccc2oc(-c3ccc(N)cc3)nc2c1,89,12%,1,-24,3.8,
O=C1CSC(c2ccncc2)N1Cc1ccccc1 (centres undefined),1,4%,.,2,4.6,
Cc1cc(C)nc(SCCC(=O)Nc2ccccc2C)n1,-8,2%,-42,5,-0.1,
Cc1cccc(NC(=S)NCc2ccccn2)c1,2,2%,-15,13,5.6,
CCCSc1nc(C)c(CC(=O)OCC)c(=O)[nH]1,2,-7%,-32,-2,1.2,
CN(Cc1ccccc1NCC(=O)Nc1ccccc1C#N)C1CCCCC1,-14,2%,.,8,-0.8,
C#CCN(C)C(C)Cc1ccccc1 (centres undefined),-3,-1%,7,0,-0.1,
CC(=O)Nc1ccc(Nc2nc3ccccc3n3cnnc23)cc1,-4,.,.,.,0.3,
CC(C)c1ccc(/C=C2\C(=N)N3N=C(CC(=O)N4CCCCC4)SC3=NC2=O)cc1,5,.,.,.,2.5,
CC(NC(=S)Nc1ccc(F)cc1)C(c1cccs1)N1CCOCC1 (centres undefined),-3,-6%,.,4,6.0,
Cn1c(N)c(C(=O)COC(=O)CCCOc2ccc(Cl)cc2Cl)c(=O)n(C)c1=O,-11,4%,.,3,6.8,
CC(=O)NC1Sc2ccccc2N=C1c1ccccc1 (centres undefined),-3,1%,-33,-13,-5.2,
O=C(CC(Nc1ccccc1Cl)C(=O)OCC(=O)c1cccs1)c1ccccc1 (centres undefined),8,-5%,5,16,-0.2,
Fc1ccc(OCc2nn3c(Cn4nnc5ccccc54)nnc3s2)cc1,-1,-9%,-36,-5,.,
CCOc1cccc(C(=O)Nc2nc(-c3ccc(S(=O)(=O)N4CCOCC4)cc3)cs2)c1,11,4%,-11,-10,2.3,
Cc1ccc(S(=O)(=O)N(C)C)cc1NC(=O)COC(=O)CCC(=O)c1cccs1,3,1%,.,-5,3.0,
Cc1noc(NS(=O)(=O)c2ccc(NC(=O)c3cnc4scc(C)n4c3=O)cc2)c1C,1,-15%,-41,-1,-0.1,Arbovirus inh repeat=3

# Sorted by molar mass (smallest number first): three of the compounds above.
SMILES,Mtb betalactam,Mtb H37Rv,YopH inh,Arbovirus inh,RecA intein inh,others
O=C1CSC(c2ccncc2)N1Cc1ccccc1 (centres undefined),1,4%,.,2,4.6,
COC(=O)c1c(NC(=O)CCCC(=O)O)sc2c1CCCCC2,-6,0%,.,5,-1.1,
Cc1noc(NS(=O)(=O)c2ccc(NC(=O)c3cnc4scc(C)n4c3=O)cc2)c1C,1,-15%,-41,-1,-0.1,Arbovirus inh repeat=3

# The listing continues.
SMILES,Mtb betalactam,Mtb H37Rv,YopH inh,Arbovirus inh,RecA intein inh,others
CC(=O)c1cc(NC(=O)c2cccc(C(F)(F)F)c2)c(=O)oc1C,3,0%,.,3,-2.7,
O=C(NC1CC1)C1=C[C@H](C2CC2)C[C@H](OCCCCO)O1,-11,-3%,.,4,0.2,
Cc1cc(C)c(C)c(N=Nc2nc3ccccc3n2C)c1C,100,?,-22,2,2.0,
O=C1c2ccccc2C(=O)N1C/C=C/c1ccccc1,1,-1%,-28,-2,-0.4,
COc1ccc(CNC(=O)C(C)NC(=O)c2cc3ccccc3o2)cc1 (centres undefined),57,0%,-57,5,-2.3,
COc1ccc(-c2noc(CNC(=O)CCCN3C(=O)[C@H]4CC=CC[C@H]4C3=O)n2)cc1,-1,.,.,.,-1.7,
O=[N+]([O-])c1cccc(/C=N/Nc2nnc(-c3ccccc3)c(-c3ccccc3)n2)c1,8,12%,5,2,-2.0,
Cc1ccc(NC(=O)Nc2cccc(C)n2)c(C)c1,-1,3%,.,.,-0.3,
O=C(NCC(=O)N(Cc1ccco1)C(C(=O)NC1CCCC1)c1cccnc1)c1cccs1 (centres undefined),2,-11%,-40,3,-3.8,
Cc1c(-c2ccccc2)[n+](=O)c(-c2ccco2)c(C)n1[O-],-21,-5%,-26,-2,-1.4,
CC(C)c1ccc(/C=N/N2CCCCC2)cc1,-10,-3%,.,4,-3.5,
Clc1ccccc1OCCCCn1ccnc1,5,3%,14,-9,0.6,
CC1CN=C(NCc2ccccc2)S1 (centres undefined),6,-6%,-9,2,-1.4,
CCCn1c(N)c(N(CCOC)C(=O)c2ccccc2)c(=O)[nH]c1=O,0,.,.,.,-0.9,
COc1ccc(CN2CCNC(=O)C2CC(=O)N(C)Cc2ccon2)c(OC)c1 (centres undefined),5,-1%,.,3,-0.3,
CC(=O)Nc1ccc(OCCCNC(=O)c2c(-c3ccccc3)noc2C)cc1,-3,-2%,.,.,-4.0,
Cc1cc(C(=O)O/N=C(\N)c2ccc(C(C)(C)C)cc2)no1,6,-3%,.,.,-0.9,
O=C(NC(NC(=S)Nc1ccc(Cl)c(Cl)c1)C(Cl)(Cl)Cl)c1ccco1 (centres undefined),-1,3%,9,-29,-1.8,
O=C(CSc1nnc(-c2ccncc2)n1-c1ccc(Cl)cc1)NCc1cccs1,-1,-15%,-10,10,0.6,
COc1ccc(S(=O)(=O)NC2CCCCC2)cc1-n1cnnn1,-3,-10%,.,1,-1.4,
Cc1nc(C)c(C(=O)N2CCCC(C(=O)c3cc(F)ccc3F)C2)s1 (centres undefined),6,.,.,.,0.2,
CN1C(=O)/C(=C/c2ccc(OCc3ccccc3F)cc2)NC1=S,2,.,.,.,-3.7,
NCCc1c[nH]c2ccc(O)cc12,-3,.,.,.,-4.7,
COc1ccc(N/C(N)=N/c2nc(CSc3nnc(C)s3)cc(=O)[nH]2)cc1,0,-9%,.,-9,-8.7,
COc1ccc(-n2c(SCCC#N)nnc2-c2cc(Cl)ccc2OC)cc1Cl,6,1%,-34,-16,3.3,
CC(C)Cn1c(N)c(C(=O)COC(=O)[C@@H]2CCCN2C(=O)c2cccs2)c(=O)n(C)c1=O,0,-2%,.,8,0.0,
O=C(COc1ccc(F)cc1)Nc1c(C(=O)N2CCC(N3CCCCC3)CC2)oc2ccccc12,-5,.,.,.,4.1,
C=CCn1c(=O)c2c(C)c(C)sc2n2c(Nc3ccc(OC)cc3)nnc12,-6,3%,-27,10,0.4,
O=C(O)CC(SCC(=O)Nc1ccc(Cl)c(S(=O)(=O)N2CCOCC2)c1)C(=O)O (centres undefined),-6,-8%,.,.,-5.5,
Cc1ccc(S(=O)(=O)N2CCCCC2C(=O)O)s1 (centres undefined),2,3%,.,3,-2.2,
NC(=O)CC(NC(=O)c1ccc(Br)cc1)c1ccc(N2CCCCCCC2)c([N+](=O)[O-])c1 (centres undefined),91,.,.,.,8.3,
CCOc1cc(/C=N/O)cc(Br)c1OC,-2,7%,-42,1,-2.3,Arbovirus inh repeat=6
COc1ccc(S(=O)(=O)N2CCC(C(=O)Nc3cc(Cl)ccc3N3CCOCC3)CC2)cc1OC,-7,.,.,.,1.0,
Fc1ccc(-n2cc(-c3ccccc3)c3c(=S)nc[nH]c32)cc1,-2,.,.,.,13,
Oc1[nH]c2ccccc2c1C=Nc1ccccc1,-3,-6%,.,.,-0.7,
Cc1cc(-n2nnc3ccccc32)nc2ccccc12,-6,-2%,-5,-7,4.0,
CCN(CC)C(=O)Cn1cc(S(=O)(=O)CC(=O)Nc2ccccc2C)c2ccccc21,-4,.,.,.,-0.2,
O=c1cc(CCl)nc(Cc2c(Cl)cccc2Cl)[nH]1,92,.,.,.,0.8,
Cc1cc(OCC(=O)C(C)(C)C)c2c(-c3ccccc3)cc(=O)oc2c1,4,.,.,.,5.9,
CC(OC(=O)CCCc1nc2ccccc2s1)C(N)=O (centres undefined),2,-10%,-18,3,0.3,
COc1cccc(OC)c1C(=O)Nc1sc2c(c1C#N)CCC2,1,.,.,.,0.0,
CC(C)CN1CCN(C2CCN(C(C)C)CC2)C(CCO)C1 (centres undefined),.,0%,.,-1,.,
COc1ccc(OC(=O)COc2ccc(C)cc2)cc1,-7,6%,.,0,1.6,
CC(=O)Nc1ccc(C(=O)NCCCOC(C)C)cc1,-1,-2%,.,2,-0.2,
Cc1sc2nc(SCc3nc(-c4cccs4)no3)n(-c3ccccc3)c(=O)c2c1C,5,2%,-27,3,-0.7,
CCOc1ccccc1NC(=O)C1CCCN(S(C)(=O)=O)C1 (centres undefined),-3,.,.,.,-0.7,
Cc1ccc(-n2cccc2/C=C2/C(=N)N3C(=NC2=O)SN=C3S(C)(=O)=O)cc1Cl,-9,-6%,14,34*,.,
CC(C)(C)Sc1ccccc1S(=O)(=O)C(C)(C)C,-6,8%,.,.,-0.4,
CCCCOc1cccc(C(=O)NNC(=S)NC2CCCCC2)c1,-1,3%,-27,-2,8.4,
Cc1nc2scc(C)n2c(=O)c1S(=O)(=O)Nc1ccc(N2CCN(C(=O)C(C)C)CC2)cc1,11,.,.,.,-3.9,
CC(C)c1ccc(C(=O)NNC(=O)C2C3CCC(C3)C2C(=O)O)cc1 (centres undefined),-24,.,.,.,0.5,
C=CCNC(=O)c1ccc(Sc2ccccc2)c([N+](=O)[O-])c1,-2,.,-41,-3,1.6,
O=C(NNC(=O)c1ccc(Cl)cc1Cl)c1cccs1,-7,2%,.,18,-0.9,
O=C(CCN1CCN(S(=O)(=O)c2ccc(Cl)cc2)CC1)Nc1ccc(F)cc1,2,.,.,.,1.7,
COc1ccccc1C(=O)NC(=S)Nc1ccc(N2CCOCC2)c(Cl)c1,3,1%,.,-2,0.6,
CCCCCCC(=O)Nc1c2c(nc3ccccc13)N(C)CC2,-3,9%,-23,3,0.8,
CCC(C)(C)NC(=O)C(c1ccc(F)cc1)N(Cc1cccc(OC)c1)C(=O)c1cnccn1 (centres undefined),1,2%,.,-6,-5.3,
CC(C)CCn1c(N2CCCC2)nc2c1c(=O)n(C)c(=O)n2C,-2,.,.,.,0.5,
Cc1ccc2nc(SCC(=O)NC3CCCCC3)nc(=O)n2c1,-3,.,.,.,-0.5,

# The list is partial, so the mix of outcomes need not match the whole.
